Vaccinia stage: blocks a specific stage of Vaccinia orthopoxvirus infection. Vaccinia-infected cells, mCherry/Venus stage reporter fluorescence; hits give low values; some inactives read as strong as hits. activity change (mCherry), % (test concentration not listed). hit rate 0.01% among 89,000;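 active means mCherry past -33% and 40 or more points under the early reporter, replicates agreeing; inconclusive means past -33% without that gap or agreement; tested in A549 cells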;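 further: scaled between vehicle wells and reference inhibitor wells; 23 nL library stock went into each well; one replicate is shown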
Vaccinia stage Venus: further read-out of Vaccinia stage, marked with its call; activity change (Venus), %; measured here: Venus reporter, other viral stage;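 negative = less Venus signal; first of two replicates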
Active calls of the source: *; ? = inconclusive; · = not tested or not shown. These rows are one share of the data; rates above refer to the full screens.

SMILES	Vaccinia stage	Vaccinia stage Venus
C[C@H]1CN([C@@H](C)CO)C(=O)c2cc(NC(=O)Nc3ccc(F)cc3)ccc2O[C@H]1CN(C)Cc1ccc(C(F)(F)F)cc1	?	·
CN1c2ccc(-c3ccccc3)cc2[C@H]2[C@H](CCN2C(=O)c2ccncc2)[C@@H]1CO	0	-7
CO[C@H]1CN(C)C(=O)c2ccc(NC(=O)C3CCCCC3)cc2OC[C@H](C)N(C(=O)c2ccccc2)C[C@H]1C	25	12
CN(C)CC(=O)N[C@H]1C=C[C@@H](CC(=O)NCc2ccc(Cl)cc2)O[C@@H]1CO	-1	-5
Cc1ccc(S(=O)(=O)N[C@@H]2C=C[C@H](CC(=O)NCCc3ccncc3)O[C@@H]2CO)cc1	0	6
C[C@@H]1CN([C@H](C)CO)C(=O)c2cccc(NC(=O)C3CC3)c2O[C@H]1CN(C)Cc1ccccc1	8	2
COc1ccc(CNC(=O)C[C@@H]2CC[C@@H](NC(=O)CN(C)C)[C@@H](CO)O2)cc1	-10	-11
C[C@@H]1CN([C@H](C)CO)S(=O)(=O)c2ccc(C#C[C@@H](C)O)cc2O[C@H]1CN(C)CC1CCCC1	9	-7
CO[C@@H]1CN(C)C(=O)c2cc(NS(C)(=O)=O)ccc2OC[C@H](C)N(S(C)(=O)=O)C[C@H]1C	-4	-6
COC(=O)C[C@H]1C[C@@H]2c3cc(NC(=O)Nc4ccccc4)ccc3O[C@@H]2[C@@H](CO)O1	6	15
CN1CCN(C(=O)C[C@H]2C[C@H]3c4cc(NC(=O)c5ccc6c(c5)OCO6)ccc4O[C@H]3[C@@H](CO)O2)CC1	-4	-5
C[C@@H]1CCCCO[C@@H](CN(C)Cc2ccncc2)[C@@H](C)CN([C@H](C)CO)C(=O)c2cc(NC(=O)CCCN(C)C)ccc2O1	6	12
C[C@@H]1CN([C@@H](C)CO)C(=O)c2cccc(NC(=O)CCCCCC(=O)Nc3ccccc3N)c2O[C@@H]1CN(C)S(C)(=O)=O	34	13
C[C@@H]1CCCCO[C@@H](CN(C)S(=O)(=O)c2cn(C)cn2)[C@@H](C)CN([C@@H](C)CO)C(=O)c2cc(NC(=O)CCC(F)(F)F)ccc2O1	16	11
O=C(CC1CC1)Nc1ccc2c(c1)[C@@H]1C[C@@H](CC(=O)N3CCc4ccccc4C3)O[C@@H](CO)[C@@H]1O2	-4	3
C[C@@H]1CN([C@H](C)CO)C(=O)CCCn2nncc2CO[C@H]1CN(C)Cc1ccc(-c2ccccc2)cc1	-20	-30
COc1ccc(CNC(=O)C[C@@H]2CC[C@H](NS(=O)(=O)c3cccc(OC)c3)[C@H](CO)O2)cc1	-5	-4
C[C@H](CO)N1C[C@H](C)[C@H](CN(C)Cc2ccncc2)Oc2ccc(NC(=O)NC3CCCCC3)cc2CC1=O	-3	0
COc1ccc(CN(C)C[C@@H]2Oc3ccc(NC(=O)Nc4ccc(F)cc4)cc3CC(=O)N([C@H](C)CO)C[C@H]2C)cc1	-9	-11
C[C@@H]1CCCCO[C@H](CN(C)Cc2ccc(C(=O)O)cc2)[C@H](C)CN([C@@H](C)CO)C(=O)c2cc(NS(=O)(=O)c3ccc(F)cc3)ccc2O1	31	17
O=C(C1CCCC1)N1CC(=O)N2[C@H](C1)[C@@H](c1ccc(C#CC3CCCC3)cc1)[C@@H]2CO	-23	-22
O=C(NC[C@H]1[C@@H](c2ccccc2)[C@@H](CO)N1CC1CCCC1)C1CC1	9	7
Cc1noc(C)c1S(=O)(=O)Nc1ccc2c(c1)C(=O)N([C@H](C)CO)C[C@H](C)[C@H](CN(C)C(=O)Nc1cccc3ccccc13)OCCCC[C@@H](C)O2	25	18
CCCNC(=O)N(C)C[C@@H]1Oc2ncc(C#CCc3ccccc3)cc2C(=O)N([C@H](C)CO)C[C@@H]1C	5	3
CCC(=O)N1[C@@H]2c3cccc(=O)n3C[C@H]1[C@H](CO)[C@H]2C(=O)NCc1ccc(F)cc1	9	7
C[C@H]1CCCCO[C@@H](CN(C)Cc2ccc(C(F)(F)F)cc2)[C@@H](C)CN([C@@H](C)CO)C(=O)c2cc(NC(=O)c3ccncc3)ccc2O1	?	·
C[C@@H]1CN([C@H](C)CO)C(=O)c2cc(-c3ccncc3)cnc2O[C@H]1CN(C)S(=O)(=O)c1ccccc1	18	27
CCC(=O)N(C)C[C@H]1Oc2ncc(Br)cc2C(=O)N([C@@H](C)CO)C[C@H]1C	-1	-8
C[C@@H]1CN([C@@H](C)CO)C(=O)Cc2cc(NC(=O)Cc3cn(C)c4ccccc34)ccc2O[C@@H]1CN(C)C(=O)Nc1ccc(F)cc1	8	5
C[C@@H]1CN([C@H](C)CO)C(=O)c2cc(Br)cnc2O[C@@H]1CN(C)Cc1ccncc1	27	3
Cc1ccc(-c2cnc3c(c2)C(=O)N([C@@H](C)CO)C[C@H](C)[C@H](CN(C)C(=O)c2cccnc2)O3)cc1	9	5
O=C(Nc1ccccc1)N1CC(=O)N2[C@H](CO)[C@@H](c3ccc(C#Cc4cccnc4)cc3)[C@H]2C1	-7	-9
C[C@H]1CN([C@@H](C)CO)C(=O)c2c(c3ccccc3n2C)-c2ccccc2CO[C@H]1CN(C)Cc1ccncc1	3	4
CCCc1cn(CC[C@H]2CC[C@H](NC(=O)C3CC3)[C@H](CO)O2)nn1	5	6
C[C@@H]1CN([C@H](C)CO)C(=O)c2cccc(NC(=O)CCCCCC(=O)Nc3ccccc3N)c2O[C@H]1CN(C)Cc1ccc(-c2ccccc2)cc1	-11	2
CCCNC(=O)N1[C@H](CNC(=O)c2ccccc2)[C@H](c2ccccc2)[C@@H]1CO	11	15
Cc1noc(C)c1NC(=O)N(C)C[C@H]1Oc2ccc(NC(=O)CCCCCC(=O)Nc3ccccc3N)cc2CC(=O)N([C@@H](C)CO)C[C@H]1C	9	11
OC[C@@H]1[C@@H](c2ccccc2)C2(CN(Cc3ccccc3F)C2)N1Cc1ccccc1F	-29	-19
C[C@@H]1CCCCO[C@@H](CN(C)C(=O)Nc2cccc3ccccc23)[C@@H](C)CN([C@@H](C)CO)C(=O)c2cc(NC(=O)Cc3ccccc3)ccc2O1	-5	0
COc1ccc2c3c([nH]c2c1)[C@H](CO)N(C(C)=O)CC31CCN(Cc2ccccc2Cl)CC1	?	·
C[C@@H]1CN([C@@H](C)CO)C(=O)c2cccc(NC(=O)C3CC3)c2O[C@H]1CN(C)S(=O)(=O)c1cn(C)cn1	7	2
COc1ccc(S(=O)(=O)Nc2ccc3c(c2)CC(=O)N([C@@H](C)CO)C[C@H](C)[C@@H](CN(C)C(=O)NC(C)C)O3)cc1	-2	-7
COc1ccccc1CNC(=O)C[C@@H]1C[C@@H]2c3cc(N(C)C)ccc3O[C@@H]2[C@H](CO)O1	4	5
C[C@H]1CN([C@@H](C)CO)C(=O)Cc2cc(N(C)C)ccc2O[C@@H]1CN(C)Cc1ccc(C(=O)O)cc1	5	10
Cc1noc(C)c1S(=O)(=O)N(C)C[C@H]1OCCCC[C@H](C)Oc2ccc(NS(=O)(=O)c3cn(C)cn3)cc2C(=O)N([C@H](C)CO)C[C@@H]1C	22	8
CCCN(C)C[C@@H]1Oc2ncc(C#Cc3ccc(OC)cc3)cc2C(=O)N([C@H](C)CO)C[C@@H]1C	-21	-21
C[C@H](CO)N1C[C@H](C)[C@H](CN(C)C(=O)CCN2CCCCC2)Oc2ncc(C#CCN(C)C)cc2C1=O	36	15
O=C(Cc1ccncc1)Nc1ccc2c(c1)[C@@H]1C[C@@H](CC(=O)N3CCc4ccccc4C3)O[C@H](CO)[C@@H]1O2	1	1
C[C@@H]1CN([C@@H](C)CO)C(=O)c2cc(Br)cnc2O[C@@H]1CN(C)C(=O)c1ccccc1	22	23
O=C(C[C@H]1CC[C@H]2[C@@H](COC[C@@H](O)CN2C(=O)c2ccc(F)cc2)O1)NC1Cc2ccccc2C1	12	6

Taken from the entries so far (10 entries):
SMILES	Vaccinia stage	Vaccinia stage Venus
OC[C@@H]1[C@@H](c2ccccc2)C2(CN(Cc3ccccc3F)C2)N1Cc1ccccc1F	-29	-19
C[C@@H]1CCCCO[C@@H](CN(C)C(=O)Nc2cccc3ccccc23)[C@@H](C)CN([C@@H](C)CO)C(=O)c2cc(NC(=O)Cc3ccccc3)ccc2O1	-5	0
COc1ccc2c3c([nH]c2c1)[C@H](CO)N(C(C)=O)CC31CCN(Cc2ccccc2Cl)CC1	?	·
C[C@@H]1CN([C@@H](C)CO)C(=O)c2cccc(NC(=O)C3CC3)c2O[C@H]1CN(C)S(=O)(=O)c1cn(C)cn1	7	2
COc1ccc(S(=O)(=O)Nc2ccc3c(c2)CC(=O)N([C@@H](C)CO)C[C@H](C)[C@@H](CN(C)C(=O)NC(C)C)O3)cc1	-2	-7
COc1ccccc1CNC(=O)C[C@@H]1C[C@@H]2c3cc(N(C)C)ccc3O[C@@H]2[C@H](CO)O1	4	5
C[C@H]1CN([C@@H](C)CO)C(=O)Cc2cc(N(C)C)ccc2O[C@@H]1CN(C)Cc1ccc(C(=O)O)cc1	5	10
Cc1noc(C)c1S(=O)(=O)N(C)C[C@H]1OCCCC[C@H](C)Oc2ccc(NS(=O)(=O)c3cn(C)cn3)cc2C(=O)N([C@H](C)CO)C[C@@H]1C	22	8
CCCN(C)C[C@@H]1Oc2ncc(C#Cc3ccc(OC)cc3)cc2C(=O)N([C@H](C)CO)C[C@@H]1C	-21	-21
C[C@H](CO)N1C[C@H](C)[C@H](CN(C)C(=O)CCN2CCCCC2)Oc2ncc(C#CCN(C)C)cc2C1=O	36	15

(cont.)
SMILES	Vaccinia stage	Vaccinia stage Venus
C[C@@H]1CCCCO[C@H](CN(C)C(=O)Nc2ccc(C(F)(F)F)cc2)[C@@H](C)CN([C@H](C)CO)C(=O)c2cc(NC(=O)Nc3cccc4ccccc34)ccc2O1	9	8
C[C@H](NC(=O)C[C@@H]1C=C[C@H](NC(=O)c2cccnc2)[C@@H](CO)O1)c1ccccc1	7	10
C[C@@H]1CN([C@H](C)CO)C(=O)Cc2cc(NC(=O)Cn3cnnn3)ccc2O[C@@H]1CN(C)C(=O)NC1CCCCC1	30	27
CCCNC(=O)Nc1ccc2c(c1)C(=O)N(C)C[C@@H](OC)[C@H](C)CN(C)[C@@H](C)CO2	26	22
COCC(=O)N1CC2(C1)CN(Cc1ccccn1)[C@@H](CO)c1[nH]c3cc(OC)ccc3c12	18	15
Cc1noc(C)c1NC(=O)N(C)C[C@@H]1OCCCC[C@H](C)Oc2ccc(NC(=O)Nc3ccc4c(c3)OCO4)cc2C(=O)N([C@@H](C)CO)C[C@H]1C	23	15
C[C@@H]1CN([C@H](C)CO)C(=O)Cc2cc(NC(=O)Nc3ccc(C(F)(F)F)cc3)ccc2O[C@H]1CN(C)C(=O)Nc1ccc(F)cc1	-5	-6
COC(=O)[C@@H]1[C@@H](CO)[C@@H]2Cn3c(ccc(C4=CCCCC4)c3=O)[C@H]1N2C(=O)Cc1ccccn1	-1	-2
COc1cccc(-c2cnc3c(c2)C(=O)N([C@H](C)CO)C[C@H](C)[C@H](CN(C)CC2CCOCC2)O3)c1	11	15
CC(C)NC(=O)Nc1ccc2c(c1)C(=O)N([C@@H](C)CO)C[C@H](C)[C@H](CN(C)C(=O)C1CCCCC1)OCCCC[C@@H](C)O2	15	14
C[C@@H]1CN([C@@H](C)CO)S(=O)(=O)c2ccc(Br)cc2O[C@@H]1CN(C)Cc1ccc2c(c1)OCO2	-30	-24
O=C(C[C@@H]1C[C@@H]2c3cc(NC(=O)C4CCOCC4)ccc3O[C@@H]2[C@@H](CO)O1)NCC1CC1	15	5
C[C@H]1CN([C@@H](C)CO)C(=O)c2cc(NC(=O)Cn3cnnn3)ccc2O[C@@H]1CN(C)C(=O)Nc1ccc(C(F)(F)F)cc1	3	11
C[C@H]1CN([C@@H](C)CO)C(=O)c2cc(NC(=O)CCCN(C)C)ccc2O[C@H]1CN(C)Cc1ccc(C(F)(F)F)cc1	0	-5
C[C@H]1CN([C@@H](C)CO)C(=O)c2cccc(NC(=O)Nc3ccccc3)c2O[C@H]1CN(C)C(=O)Nc1ccc(F)cc1	-22	-14
CC(C)c1ccc(NC(=O)C[C@H]2CC[C@H]3[C@@H](COc4ccc(NC(=O)Nc5ccc(F)c(F)c5)cc4C(=O)N3C)O2)cc1	?	·
O=C(C1CCOCC1)N1CC(=O)N2[C@H](CO)[C@H](c3ccc(-c4cccnc4)cc3)[C@@H]2C1	12	7
O=C(NCc1ccc2c(c1)OCO2)[C@H]1[C@H](CO)[C@H]2Cn3c(cccc3=O)[C@@H]1N2Cc1cccnc1	17	18
C[C@@H]1CN([C@H](C)CO)C(=O)c2cc(N(C)C)ccc2O[C@@H]1CN(C)C(=O)Nc1cccc2ccccc12	12	1
O=C(C[C@H]1C=C[C@@H](NC(=O)NC2CCCCC2)[C@@H](CO)O1)NCc1ccc(Cl)cc1	-1	0
CS(=O)(=O)N1CC2(C1)[C@H](c1ccccc1)[C@H](CO)N2Cc1ccccc1	-3	2
O=C(c1cccnc1)N1CC[C@@H]2[C@H]1c1cc(-c3cccc(F)c3)ccc1N[C@@H]2CO	10	9
Cc1ccc(-c2ccc([C@H]3[C@H](CO)N4C(=O)CN(C(=O)Cc5ccccn5)C[C@@H]34)cc2)cc1	10	3
O=C(C[C@@H]1CC[C@@H](NS(=O)(=O)c2ccccc2)[C@@H](CO)O1)N1CCC(Cc2ccccc2)CC1	-18	-13
O=C(CC1CC1)Nc1ccc2c(c1)[C@H]1C[C@@H](CC(=O)N3CCCCC3)O[C@@H](CO)[C@H]1O2	15	11
C/C=C/c1ccc([C@@H]2[C@H](CO)N(C(=O)c3ccccc3)C23CN(C(C)=O)C3)cc1	-5	-3
C[C@H]1CN([C@@H](C)CO)C(=O)c2cccc(NS(=O)(=O)c3ccc(F)cc3)c2O[C@@H]1CN(C)C(=O)NC1CCCCC1	-5	5
CC(C)NC(=O)N[C@@H]1C=C[C@@H](CC(=O)NC2Cc3ccccc3C2)O[C@H]1CO	7	2
Cc1ccc(S(=O)(=O)Nc2ccc3c(c2)C(=O)N([C@H](C)CO)C[C@@H](C)[C@H](CN(C)C(=O)Nc2ccc4c(c2)OCO4)OCCCC[C@@H](C)O3)cc1	?	·

Screens from PubChem BioAssay.
